Assay outcomes: PubChem BioAssay, National Center for Advancing Translational Sciences (NCATS)
HPGD block: inhibitors of human 15-hydroxyprostaglandin dehydrogenase (HPGD) | P15428 | purified HPGD, NADH fluorescence kinetic, PGE2 substrate | Potency, µM, for the others: top-dose activity change, negative = inhibition, actives largely listed as inhibitors | 150,000 tested, 4.3% active | AID 894; active = well fitted inhibition curve with a large enough effect (not every such curve was filed as active); inconclusive = small, poorly fitted or top-dose-only effect, or another doubt; inactive = no such curve, though single readings can be large or run the other way;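 also: top concentration of the series not given in the record; plate controls included wells without enzyme; inactives centre near -10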
Target sequence (P15428 whole entry, looked up): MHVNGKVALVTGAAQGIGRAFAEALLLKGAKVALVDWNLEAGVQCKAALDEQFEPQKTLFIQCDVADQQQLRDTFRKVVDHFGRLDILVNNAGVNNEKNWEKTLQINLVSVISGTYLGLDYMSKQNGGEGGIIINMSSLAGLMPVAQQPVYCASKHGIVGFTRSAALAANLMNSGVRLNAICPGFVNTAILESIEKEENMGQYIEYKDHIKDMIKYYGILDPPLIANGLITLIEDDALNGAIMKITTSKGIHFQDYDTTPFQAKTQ
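NADH formation kinetics: reaction with 30 uM PGE2 and 1 mM NAD+ (final), 20 nM enzyme, Tris-HCl pH 8 with Tween 20, after 15 min compound preincubation at room temperature. Fluorescence change, last versus first of five reads.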
* hit, by the source's call; ? = inconclusive; ! = not active in a repeat. % is scaled to controls: 0 for no effect and ±100 for the full control effect; potency is read from the fitted curve at half-maximal effect. A portion of the library; count on the stated rates, not on these rows.

SMILES	HPGD block
Cc1ccc(-n2cccc2/C=C2/C(=N)N3C(=NC2=O)SN=C3S(C)(=O)=O)cc1Cl	-15%
Cc1sc2nc(SCc3nc(-c4cccs4)no3)n(-c3ccccc3)c(=O)c2c1C	-25%
CC1(C)OC2CO[C@]3(COS(N)(=O)=O)OC(C)(C)OC3C2O1 (some centres not stated)	-9%
O=C(Nc1ccccc1Cl)c1ccc(COc2ccc3c(c2)CCC3)cc1	-6%
COc1ccc(OC)c(C2C(C(=O)c3cccs3)=C(O)C(=O)N2c2cc(C)on2)c1 (configuration not stated)	-5%
Clc1ncn(C23CC4CC(CC(C4)C2)C3)n1	-1%
COc1cccc(CNC(=O)N[C@@H](CC(C)C)C(=O)O)c1	-1%
O=C(Nc1cccc(Cl)c1)c1ccc(Cn2cc(Cl)cn2)cc1	-11%
CCC(C)[C@H](NC(=O)NCc1ccccn1)C(=O)OC (some centres not stated)	-7%
CCN(CC)CCCn1c(-c2ccccc2)nc2c(N3CCOCC3)nc(C)nc21	?
NCCCC[C@@H]1NC(=O)c2cc([N+](=O)[O-])cc(F)c2NCCCC[C@@H](C(N)=O)NC(=O)[C@H](CCC(N)=O)NC1=O	-11%
COc1cc([N+](=O)[O-])ccc1NC(=O)COC(=O)c1n[nH]c2ccccc12	?
COC(=O)c1cc(OC)c(OC)cc1N=CC1=C(O)CC(C)(C)CC1=O	?
COC(=O)[C@@]1(Cc2ccccc2)[C@H]2c3cc(C(=O)N4CCCC4)n(CCO)c3C[C@H]2CN1C(=O)c1ccccc1	-11%
COCCn1c(=O)[nH]c(=O)c2cc(C(=O)c3cc(OC)ccc3O)cnc21	25µM*
O=[N+]([O-])c1ccc(O)c(C=Nc2ccc3nc(-c4ccccc4)[nH]c3c2)c1	?
COC(=O)c1cc(NS(=O)(=O)c2ccc(N3CCC(C)CC3)c([N+](=O)[O-])c2)cc(C(=O)OC)c1	-20%
CS(=O)(=O)NCc1ccc(C(=O)NC2CCCCC2)cc1	1%
COCC(=O)N1CCC(n2nnc3cc(F)ccc32)CC1	-1%
Cc1cc(N=Cc2c(O)ccc3cc(Br)ccc23)no1	10µM*
CCC(C(=O)O)n1nnc(-c2ccc(-c3ccc(OC)cc3)cc2)n1 (configuration not stated)	?
COc1cccc(OCC(=O)NN=C2c3ccccc3-c3ccccc32)c1	-21%
Cc1cc(C)nc(SC(C(=O)O)c2ccccc2)n1 (configuration not stated)	-3%
COC(=O)C(Cc1c[nH]c2ccccc12)NC(=O)CNC(C)=O (configuration not stated)	-2%
Cc1noc(C)c1C(=O)N1CCC2(CCN(C(=O)NC(C)C)CC2)CC1	-7%
O=c1cc(CSc2nnnn2-c2ccccc2)nc2scc(-c3ccccc3)n12	-15%
O/N=C1\CCCc2nnc3c(c21)CCCC3	-25%
O=C(COC(=O)C1=COCCO1)Nc1cccc(Oc2ccccc2)c1	-2%
c1cnc(NC2C3CC4CC(C3)CC2C4)nc1 (configuration not stated)	-28%
COc1ccc(-c2noc(CCC(=O)NCc3cc(Br)ccc3OC)n2)cc1	-1%

Among those listed so far, 8 have a halogen:
SMILES	HPGD block
Cc1ccc(-n2cccc2/C=C2/C(=N)N3C(=NC2=O)SN=C3S(C)(=O)=O)cc1Cl	-15%
O=C(Nc1ccccc1Cl)c1ccc(COc2ccc3c(c2)CCC3)cc1	-6%
Clc1ncn(C23CC4CC(CC(C4)C2)C3)n1	-1%
O=C(Nc1cccc(Cl)c1)c1ccc(Cn2cc(Cl)cn2)cc1	-11%
NCCCC[C@@H]1NC(=O)c2cc([N+](=O)[O-])cc(F)c2NCCCC[C@@H](C(N)=O)NC(=O)[C@H](CCC(N)=O)NC1=O	-11%
COCC(=O)N1CCC(n2nnc3cc(F)ccc32)CC1	-1%
Cc1cc(N=Cc2c(O)ccc3cc(Br)ccc23)no1	10µM*
COc1ccc(-c2noc(CCC(=O)NCc3cc(Br)ccc3OC)n2)cc1	-1%

New compounds follow.
SMILES	HPGD block
CC1=C(C#N)C(NC(=O)c2ccc(C)cc2)(C(F)(F)F)C(=O)N1 (configuration not stated)	4%
Cc1cc(C)c(S(=O)(=O)NCc2cn3c(C)csc3n2)cc1C	-8%
Cc1ccccc1Cn1ccc(NC(=O)c2cc3nc(-c4ccco4)cc(C(F)(F)F)n3n2)n1	?
Cc1ccc(-c2nnn(Cc3nc(N)nc(N4CCOCC4)n3)n2)cc1	3%
COc1ccc(N2CCN(CCCNC(=O)C3(S(=O)(=O)c4ccc(Cl)cc4)CC3)CC2)cc1	-7%
O=C(NC(Cc1ccc2c(c1)OCO2)C(=O)NC(Cc1ccccc1)C(=O)O)c1ccccc1 (configuration not stated)	-13%
Cc1nn(Cc2ccccc2)c(C)c1C(=O)Nc1ccc(N2CCOCC2)cc1	-12%
CCOC(=O)C1=C(N)OC2=C(C(=O)CCC2)C1c1ccccc1OCC (configuration not stated)	-5%
Cn1ncc(Cl)c1C(=O)N/N=C/c1cccc(OC2CSC2)c1	-4%
CC(=O)Nc1ccc(S(=O)(=O)Nc2ccc(NC(=O)c3ccco3)cc2)cc1	-12%
O=C1C(C=Nc2ccccc2)=C(O)c2ccccc21	-20%
CCC1(c2ccccc2)NC(=O)N(CC(=O)Nc2ccc3c(c2)OCO3)C1=O (configuration not stated)	-7%
COc1ccc(S(=O)(=O)N(CC(=O)Nc2ccc(S(=O)(=O)N3CCOCC3)cc2)c2ccccc2)cc1	3.5µM*
O=C(c1ccccc1)c1nc2ccccc2n(CCCn2c(=O)c(C(=O)c3ccccc3)nc3ccccc32)c1=O	-2%
CCC(=O)OC1C2CC3=C4CC(=O)OC(c5ccoc5)[C@]4(C)CCC3[C@@](C)(C2=O)C(CC(=O)OC)C1(C)C (some centres not stated)	-8%
COc1ccc(S(=O)(=O)N[C@H](C(=O)N2CC[C@@]3(O)CCCC[C@H]3C2)c2ccccc2)cc1	-1%
COc1ccc(-c2c(C)nn3c(N4CCN(Cc5ccccc5)CC4)cc(C)nc23)cc1OC	?
COCc1[nH]nc2c1C(c1cccc(OC)c1)C(C#N)=C(N)O2 (configuration not stated)	-22%
Cc1ccc(C2(CC(=O)O)CCOC(C)(C)C2)cc1 (configuration not stated)	-13%
Fc1ccc(NCc2nnc(SCc3nnc(-c4ccccc4)o3)n2Cc2ccccc2)cc1	28µM*
Cc1cc(C)c(S(=O)(=O)c2ccccc2)c(OC(=O)c2cc(F)c(F)cc2Cl)n1	-4%
CC(C)CC(c1nnnn1C1CCCCC1)N1CCN(c2ncccn2)CC1 (configuration not stated)	-14%
Cc1ccc(C(=O)N/C(=C\c2ccco2)C(=O)NCCCn2ccnc2)cc1C	-28%
Cc1cc(NC(=O)CSc2nc3c([nH]c4ccccc43)c(=O)n2-c2cccc(C(F)(F)F)c2)no1	-22%
O=S(=O)(c1cccc2nsnc12)N1CCN(C/C=C\c2ccccc2)CC1	-6%
O=C(Cn1c(C(F)(F)F)nc2ccccc21)NCCN1CCCC1	-3%
CC[C@H]1OC(=O)[C@H](C)[C@@H](O[C@H]2C[C@@](C)(OC)[C@@H](O)[C@H](C)O2)C(C)[C@@H](O[C@@H]2O[C@H](C)C[C@H](N(C)C)[C@@H]2O)[C@](C)(OC)C[C@@H](C)C(=O)[C@H](C)[C@@H](O)[C@]1(C)O (some centres not stated)	-15%
CCn1cc(C=C2C(=O)c3ccccc3C2=O)c2ccccc21	0%
Cc1cccc(OCC(=O)Nc2cccc(O)c2)c1	3%
CC(C)C(=O)OCC(=O)Nc1ccc2c(c1)CCC2	-11%
COCCN1Cc2cccc(C(=O)Nc3cc(OC)ccc3OC)c2C1=O	-12%
C/C(CCc1ccccc1)=N\NC(=O)c1ccccc1	0%
Oc1ccccc1C1=Nc2ccccc2N=C(c2cccs2)C1	-17%
COC(=O)C(Nc1ccccc1Cl)(c1cc(C)c(O)c(C)c1)C(F)(F)F (configuration not stated)	-14%
CCC(C)NC(=O)C1CCN(S(=O)(=O)c2ccc(Br)s2)CC1 (configuration not stated)	-11%
CCOC(=O)c1cnc2c(-c3ccc(Cl)cc3)c(C)nn2c1N	?
Cc1cc(OCC(F)(F)C(F)(F)C(F)(F)C(F)F)nc(N)n1	-3%
C=CCOC(=O)N[C@@H](CCc1ccccc1)C(C(C)=O)C(C)=O	-7%
Cc1ccnc(NC(=S)NC(=O)c2cncc(Br)c2)c1	-8%
COc1ccc(C2C(C(=O)O)CC(=O)N2c2ccc(OC)cc2)cc1 (configuration not stated)	0%
O=C(c1ccc(S(=O)(=O)N2CCCCC2)cc1)N1CCN(Cc2ccc3c(c2)OCO3)CC1	-1%
CC(C)N(C(=O)Cn1c(SCC(=O)NCc2ccc3c(c2)OCO3)nc2ccccc21)C(C)C	-2%
CCOC(=O)c1c(-c2ccc(OC)cc2)csc1/N=C/N(C)C	-13%
CCSc1nc(N)c(C#N)c(-c2ccco2)c1C#N	-7%
Fc1ccccc1/C=N/Nc1ncnc2nc[nH]c12	-17%
COc1ccc(-n2cnnc2SCC(=O)N2CCN(S(=O)(=O)c3ccccc3)CC2)cc1	-6%
COc1ccc(N2CCN(C(=O)CSc3nnc(CNc4ccccc4)o3)CC2)cc1	2%
CC(C)(C)C(=O)Nc1nnc(Cc2ccccc2)s1	-12%
Cc1nc(NC2=NCN(Cc3ccc4c(c3)OCO4)CN2)nc2ccccc12	-4%
CCCCC/C=C\C/C=C\CCCCCCCC(=O)O	8.9µM*!
(listing goes on)
SMILES	HPGD block
Cc1[nH]c(=O)[nH]c(=O)c1S(=O)(=O)N1CCC(C(=O)NC(C)c2ccccc2)CC1 (configuration not stated)	-4%
COC(=O)c1ccccc1NC(=O)Nc1nnc(N2CCCCC2C)s1 (configuration not stated)	-4%
CC1C(c2ccccc2)=[N+]([O-])C2(CCCC2)N1O (configuration not stated)	-2%
O=C(Nc1cccnc1)Nc1ccc(Br)cc1Cl	-12%
COCc1cc(C)nc2sc3c(=O)n(-c4cccc5ccccc45)nnc3c12	-10%
C=CCn1c(-c2cccn(Cc3cccc(Cl)c3)c2=O)n[nH]c1=S	-6%
CC(C)Cn1nc(NC(=O)C(C)(C)C)c2cc3ccccc3nc21	-15%
COc1ccc(CN(C(=O)c2snc(C(N)=O)c2N)C(C(=O)NC(C)(C)C)c2ccco2)cc1 (configuration not stated)	-18%
CC(C)(C)C(=O)NC(Nc1cccc2cccnc12)C(Cl)(Cl)Cl (configuration not stated)	?
O=c1cc(C(F)(F)F)c2sc(N3CCCCC3)nc2[nH]1	?
CCOc1ccc(C2CC(c3cccc(OC)c3)Nc3nc(N)nn32)cc1 (configuration not stated)	-5%
Cc1ccc(OCCCNCCO)c(Br)c1	-13%
O=C(Nc1c(C(=O)c2ccccc2)oc2ccccc12)c1cc(-c2ccccc2O)n[nH]1	-18%
CC(C)=CC(=O)Nc1nnc(-c2ccccc2)s1	-29%
Cc1ccc(C(=O)Nc2ccon2)cc1S(=O)(=O)N1CCOCC1	-19%
O=C(Cc1ccccc1)N1CCc2ccccc21	-20%
CC1(C)OC(C(N)=O)C(C(N)=O)O1 (configuration not stated)	-6%
COc1cccc(C(=O)NCc2ccccc2OC)c1	?
C/C(=N\NC(=S)NC(C)C)c1cccc([N+](=O)[O-])c1	-11%
Cc1ccc(-c2nn(-c3ccccc3)cc2C(=O)Nc2ccc(C)c(S(=O)(=O)N3CCOCC3)c2)cc1	-28%

Entries above printed as active in HPGD block.
SMILES	HPGD block
COCCn1c(=O)[nH]c(=O)c2cc(C(=O)c3cc(OC)ccc3O)cnc21	25µM*
Cc1cc(N=Cc2c(O)ccc3cc(Br)ccc23)no1	10µM*
COc1ccc(S(=O)(=O)N(CC(=O)Nc2ccc(S(=O)(=O)N3CCOCC3)cc2)c2ccccc2)cc1	3.5µM*
Fc1ccc(NCc2nnc(SCc3nnc(-c4ccccc4)o3)n2Cc2ccccc2)cc1	28µM*
CCCCC/C=C\C/C=C\CCCCCCCC(=O)O	8.9µM*!

Next part.
SMILES	HPGD block
CCCCC1(O)CC(C(F)(F)F)=NN1C(=O)COc1ccccc1 (configuration not stated)	?
COc1ccc(-n2c(CNC(=O)c3ccc(S(=O)(=O)N4CCCC4)cc3)n[nH]c2=S)cc1	-7%
COc1ccc(-n2c(=O)c(C)nc3cnc(Nc4ccccc4)nc32)cc1	-6%
Cc1c(C(=O)NC2CCCCC2)oc2c1C(=O)CC(C)(C)C2	-18%
C/C(Cn1nnc([N+](=O)[O-])n1)=N\NC(=O)c1ccc(Cl)c(Cl)c1	-8%
O=C(Cc1c(C(=O)O)[nH]c2ccccc12)NCCN1CCN(c2cccc(Cl)c2)CC1	-1%
O=C(O)c1cccc(N2CCCC2)c1	?
CC(C)c1ccc(-c2nnn(CCC(=O)O)n2)cc1	-12%
CCOc1ccc(S(=O)(=O)N(CC(=O)O)c2ccc(C)cc2)cc1	5%
O=S(=O)(NC1c2cccc3cccc(c23)C1Sc1ncccn1)c1ccc(Cl)cc1 (configuration not stated)	-11%
Nc1nc(-c2ccccc2)nn1C(=O)Cc1ccccc1	-9%
Cn1c(SCC(=O)NC2CCCCCC2)nnc1-c1cccs1	-11%
COC(=O)C(NC(=O)c1ccc(F)cc1)(Nc1ncc(S(=O)(=O)c2ccc([N+](=O)[O-])cc2)s1)C(F)(F)F (configuration not stated)	-11%
COc1ccc(N2CCN(C(=S)Nc3cc(C)cc(C)c3)CC2)cc1	-7%
O=C(O)c1ncc(-c2ccccc2)cn1	-7%
CC1CCc2cc(F)cc3c(O)c(C(=O)NCC4CCCO4)c(=O)n1c23 (configuration not stated)	-26%
O=C(CCC1CCCCC1)Nc1cccnc1	-8%
O=S(=O)(NC1CCCCCC1)c1cccc2cccnc12	-1%
CC(=O)c1cc2cc(O)ccc2o1	?
O=Cc1c(N2CCN(c3cccc(Cl)c3)CC2)nc2ccccn2c1=O	-17%
CC(=O)CSc1nc2ccccc2o1	-12%
Cc1cc(C)n(CCC(=O)N/N=C/c2ccccc2O)n1	?
Cc1cc(C(C)(C)C)cc(C)c1N	2%
CNC(=S)N/N=C/c1cn(CCOc2cccc(OC)c2)c2ccccc12	16µM*
